Autofluor counter = flagged as autofluorescent in microsphere protease counterscreen; 360,000 compounds, 3.1% hits; AID 624483; fluorescence intensity (concentration not given with the values); compound autofluorescence counterscreen, microsphere flow cytometry; stronger effect = higher value;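 active = at least 3 SD above the mean of all compounds, about 16000 in these data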;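 note: 100 nL of 1 mM stock went into each well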
* = called active by the depositor. Only part of the results is shown; rates above refer to the full screens.

SMILES	Autofluor counter
Cc1ccc(C(O)c2ncc(-c3cccc4ccccc34)[nH]2)cc1F (centres undefined)	3754
Cc1cccc(C)c1NC(=O)C1(C)CCC(=O)N1C1CC1 (centres undefined)	6334
Cn1c(=O)c2c(-c3ccccc3)n(-c3ccccc3S)cc2n(C)c1=O	3388
Cc1cc(NC(=O)C(C)SCC(=O)Nc2ccc(C(=O)OC(C)C)cc2)no1 (centres undefined)	3613
Cn1c(NCc2cccnc2)nc2cc(-c3cccc(C(F)(F)F)c3)sc2c1=O	2977
CCc1nc2ccc(C(=O)N(C)CCN(C)C)cn2c1N(CC)CCOC	3649
O=C(COc1ccc(CNC[C@H]2O[C@@H](n3ccc(=O)[nH]c3=O)[C@H](O)[C@@H]2O)cc1)Nc1ccccn1	5630
C[C@H]1CN(c2ccccc2)C(=O)[C@@H]1CC(=O)Nc1ccccc1	3818
CC(C)(C)c1ccc(S(=O)(=O)NC(=O)C2(C)CCN2C(=O)C2CC2)cc1 (centres undefined)	3777
COC(=O)c1ccc2nc(-c3ccc(C)cc3)c(Cc3cccc(F)c3)n2c1	6346
COc1ccccc1-c1csc(C(O)c2ccccc2)n1 (centres undefined)	3600
CC(Cl)=CCn1c(NCCc2ccccc2)nc2c1c(=O)n(C)c(=O)n2C	2794

Filtered by structure, the compounds so far with a halogen (4)
SMILES	Autofluor counter
Cc1ccc(C(O)c2ncc(-c3cccc4ccccc34)[nH]2)cc1F (centres undefined)	3754
Cn1c(NCc2cccnc2)nc2cc(-c3cccc(C(F)(F)F)c3)sc2c1=O	2977
COC(=O)c1ccc2nc(-c3ccc(C)cc3)c(Cc3cccc(F)c3)n2c1	6346
CC(Cl)=CCn1c(NCCc2ccccc2)nc2c1c(=O)n(C)c(=O)n2C	2794

The list continues.
SMILES	Autofluor counter
COc1ccc(-c2cc(NC=O)c3ncc(-c4cnn(C)c4)n3c2)cc1	3859
CC1CCC2(CC1)NC(=O)N(CC(=O)NCc1ccco1)C2=O (centres undefined)	3541
C[C@@H]1CN([C@H](C)CO)C(=O)c2cc(C#CC3CCCCC3)cnc2O[C@H]1CN(C)Cc1cccnc1	2921
Cn1c(=O)c2cc(NC(=O)Cc3cccc4ccccc34)ccc2n1-c1ccccc1	3907
COc1cccc(-c2n[nH]nc2C2=CC(=O)C[C@H](c3ccc(F)cc3)C2)c1	3894
C[C@@H]1CN([C@@H](C)CO)C(=O)CCCn2nncc2CO[C@H]1CN(C)C(=O)c1cc(-c2ccccc2)on1	3371
CCc1nc2c(OCC(=O)C(C)(C)C)cccn2c1N(C)C(=O)c1cccs1	2932
C[C@H](CO)N1C[C@H](C)[C@@H](CN(C)Cc2ccccn2)Oc2ncc(Br)cc2C1=O	3697
C#CCNC(=O)C[C@@H]1C[C@@]2(C(=O)OCC)CCC=C2N(Cc2ccc(Cl)cc2Cl)C1=O	5858
COC(=O)[C@]12CCCCC=C1N(Cc1ccccc1)C(=O)[C@H](CC(=O)N1CCCCC1)C2	4074
CC1(C(=O)Nc2ccc3c(c2)OCO3)CCN1C(=O)CCc1ccc(Cl)cc1Cl (centres undefined)	4232
O=C(c1ccc(CS(=O)c2ccccc2Cl)o1)N1CCN(C2CCCCC2)CC1 (centres undefined)	4214
CCOc1cc(N2CCOCC2)c(OCC)cc1NC(=O)COC(=O)c1c(C)noc1C	4039
COCCCNc1ccn2nc(-c3ccc(OCCN4CCOCC4)cc3)cc2n1	3431
O=C(NCCc1ccccc1)C1Cc2c(-c3ccccc3)ccnc2O1 (centres undefined)	3523
Cc1ccc(S(=O)(=O)N(C)c2ccc(C(=O)NCC(c3ccccc3)N3CCCC3)cc2)cc1 (centres undefined)	5412
O=C(OCC(O)C1OC(c2ccccc2)OC(COC(=O)c2ccccc2)C1O)c1ccccc1 (centres undefined)	6047
COc1c(C)cc(C(O)c2ncc(-c3ccc(C(F)(F)F)cc3)[nH]2)cc1C (centres undefined)	4205
COc1c(C)cc(C(O)c2ncc(-c3ccccc3C)[nH]2)cc1C (centres undefined)	3683
CN1CCN(C(=O)CCn2c(=S)[nH]c3ccccc3c2=O)CC1	2856
O=C(COC(=O)c1ccc(S(=O)(=O)N2CCCC2)cc1)Nc1ccccc1Cl	3202
CCOc1ccc(/C=C/C(=O)N(CC)CC(=O)Nc2c(F)cccc2F)cc1OC	3933
Fc1ccc(-c2nc3c4ccccc4ccn3c2Cc2ccccc2)cc1	3753
COCCn1c(=S)[nH]c2cc(C(=O)NC3CCCCC3C)ccc2c1=O (centres undefined)	3534
O=C(NS(=O)(=O)c1ccc2ccc(S(=O)(=O)NCCSc3ccccc3)cc2c1)c1cccc2ccccc12	5410
CC1=C(C(=O)N(C(C)C)C(C)C)CC(CC(=O)NCc2cccc3ccccc23)C(=O)N1CCCN1CCCC1=O (centres undefined)	4232
COc1cccc(CN2CCC(C)(Oc3cccc(Cl)c3)C2)c1OC (centres undefined)	3580
CCN1C(=O)[C@H]2[C@@H](c3ccc(C(F)(F)F)cc3)N[C@]3(CCCN(Cc4ccco4)C3=O)[C@H]2C1=O	2902
CC1(C(=O)NS(=O)(=O)c2cccc(C#N)c2)CCN1C(=O)CC1CCCCC1 (centres undefined)	3867
COc1cc(C(=O)N2Cc3ccccc3-n3nncc3C2)cc(OC)c1OC	3505
CCOC(=O)[C@]12Cc3ccccc3[C@H]1N(C(C)C)C(=O)c1ccccc12	5781
c1ccc(Cc2c(-c3ccccc3)nc3c4ccccc4ccn23)cc1	3754
CCCCCCCCN1C(=O)[C@H](CC(=O)N2CCN(C(=O)OCC)CC2)C[C@@]2(C(=O)OCC)CCCC=C12	6153
O=C(NCc1cccnc1)c1cc(C2CCCCN2C(=O)CCCc2ccccc2)on1 (centres undefined)	3601
CC(C)[C@@H]1O[C@H](CCc2ccccc2)CC2=C1C(=O)OC(C)(C)O2	5887
C[C@H](NC(=O)C1CCN(S(=O)(=O)c2ccccc2)CC1)C(=O)NCc1cccnc1	2951

A draw from above in order of formula weight, rising:
SMILES	Autofluor counter
COc1cccc(CN2CCC(C)(Oc3cccc(Cl)c3)C2)c1OC (centres undefined)	3580
O=C(COc1ccc(CNC[C@H]2O[C@@H](n3ccc(=O)[nH]c3=O)[C@H](O)[C@@H]2O)cc1)Nc1ccccn1	5630
C[C@@H]1CN([C@H](C)CO)C(=O)c2cc(C#CC3CCCCC3)cnc2O[C@H]1CN(C)Cc1cccnc1	2921

The list continues:
SMILES	Autofluor counter
O=[N+]([O-])c1ccc(CN2CC(N3CCC(c4ccccc4)CC3)CS2(=O)=O)cc1 (centres undefined)	4362
O=C1CCC2c3[nH]c4ccccc4c3CCN12 (centres undefined)	3503
Cc1ccccc1-c1cc2nc(Oc3ccc4c(c3)OCO4)n(C)c(=O)c2s1	3123
Cc1cccc(C)c1-n1nnnc1C(CCc1ccccc1)N1CCC(n2c(=O)[nH]c3ccccc32)CC1 (centres undefined)	5250
Cc1cc2nc(C3CCCCC3)c(Cc3ccsc3)n2c(C)c1Br	4450
CC(C)N1CCC(C)(C(=O)Nc2cc(-c3ccccc3)nn2C)C1 (centres undefined)	3766
O=C(NC(c1ccc2c(c1)OCO2)c1ccccn1)C1CCN(CCOc2ccc(Cl)cc2Cl)CC1 (centres undefined)	4087
CC(C)CNC(=O)C1(C)CCCN1C(=O)Cc1cccc2ccccc12 (centres undefined)	3992
COc1ccc(NC(=O)c2cc(C3CCCCN3C(=O)C3CCCCC3)on2)c(C)c1 (centres undefined)	3415
CC(C)c1ccc(O)c(=O)cc1	5942
COc1ccc(C(O)c2ncc(-c3cccc(C(F)(F)F)c3)[nH]2)cc1F (centres undefined)	3479
COc1ccc(N2C[C@H](C)[C@@H](CC(=O)Nc3ccc(Br)cc3)C2=O)cc1	3365
COc1ccc(C(=O)N2CCCC2(C)C(=O)O)cc1C(F)(F)F (centres undefined)	3751
CS(=O)(=O)c1cccc(-c2ccc3nncn3c2)c1	3876
CC(=O)NCCc1ccc(C(=O)COC(=O)c2ccc(C)s2)cc1	3362
Brc1ccc2nc(-c3ccccc3)c(Cc3ccccc3)n2c1	6056
COCC(=O)N(C)C[C@@H]1Oc2cc(Br)ccc2S(=O)(=O)N([C@H](C)CO)C[C@H]1C	3746
CC1=C(C(=O)N2CCOCC2)CC(CC(=O)NCc2cccs2)C(=O)N1CCCN1CCCC1=O (centres undefined)	4165
Cc1cc(Cl)ccc1C(O)c1ncc(-c2ccccc2Cl)[nH]1 (centres undefined)	3941
C[C@@H]1CN([C@H](C)CO)C(=O)CCCn2nncc2CO[C@H]1CN(C)S(=O)(=O)c1ccc2ccccc2c1	2931
CCc1nc2ccc(C(=O)NC3CCN(Cc4ccccc4)CC3)cn2c1N(C)Cc1cc2ccccc2s1	3678
C[C@H](CO)N1C[C@H](C)[C@H](CN(C)C(=O)Nc2ccnc(N3CCOCC3)c2)OCc2cnnn2CCCC1=O	3981
COc1cccc(-c2cc3nc(C)c(C)c(N4CCN(C(=O)c5ccoc5)CC4)n3n2)c1	3824
Cc1ccc(NC(=O)CN2C(=O)NC3(CCCCC3C)C2=O)cc1S(=O)(=O)N1CCOCC1 (centres undefined)	3523
Cc1cc(C)c(NC(=O)CN2CCN(S(=O)(=O)c3ccc4c(c3)OCCO4)CC2)c(C)c1	2957
CCOC(=O)C1(C)CCCN1C(=O)c1cc(F)ccc1C (centres undefined)	3904
Cc1ccc(S(=O)(=O)Nc2ccc3c(c2)C(=O)N([C@@H](C)CO)C[C@@H](C)[C@@H](CN(C)S(=O)(=O)c2ccccc2)OCCCC[C@H](C)O3)cc1	3476
COC(=O)[C@]1(Sc2ccc(C)cc2)CC(=O)N[C@@H]1c1ccccc1	5021
CC(C)CC1OC(C)Cc2[nH][nH]c(=O)c21 (centres undefined)	4107
Cc1cc(Cl)ccc1NC(=O)/N=C1/NC(=O)CS1	4307
CCOC(=O)[C@]12CCC=C1N(Cc1ccc(Cl)cc1Cl)C(=O)[C@H](CC(=O)N1CCOCC1)C2	5915
CCc1nc2ccc(C(=O)N(C)C(C)C)cn2c1N(CCC(C)C)CCN(C)C	3494
COc1ccc(Cl)cc1Cn1c(C)c(C(=O)N(C)Cc2ccc(F)cc2)sc1=O	3924
O=C(NCc1ccc(F)cc1)c1cc(C2CCCN(C(=O)CCCc3ccccc3)C2)on1 (centres undefined)	4627
O=C1NCN(c2ccccc2)C12CCN(C(c1ccccc1)c1nnnn1C1CCCC1)CC2 (centres undefined)	6149
CC(=O)Oc1ccccc1Cn1c(C)c(C(=O)NCCC#N)sc1=O	4003
CN(C)c1cccc(CN2CCN(c3ccccc3)CC2)c1	5467
COc1ccccc1CNc1nc(NCCN2CCNC2=O)c2sccc2n1	3841
CCOC(=O)c1c(C)nsc1NC(=O)C1(C)CCN1C(=O)CC (centres undefined)	3577
O=C(Nc1cccc(C(F)(F)F)c1)C1Cc2c(-c3ccco3)ccnc2O1 (centres undefined)	3923
CCc1nc2ccc(C(=O)N3CCN(C(C)=O)CC3)cn2c1N(CC)C(=O)NCCc1ccccc1	3542
CCCCCC(=O)N1C[C@@H](O)[C@H](n2cc(C3CC3)nn2)C[C@@H]1c1ccc(C)cc1	2970
Cc1ccc(S(=O)(=O)N(C)C[C@H]2Oc3cc(Br)ccc3S(=O)(=O)N([C@H](C)CO)C[C@H]2C)cc1	3379
O=Cc1cn(CCOc2ccc(F)cc2)c2ccccc12	3572
CCOC(=O)C1(C)CCCCCN1C(=O)c1ccc(SC(F)(F)F)cc1 (centres undefined)	3962
NC(Cc1ccc(C(F)(F)F)cc1)c1csc(Nc2ccccn2)n1 (centres undefined)	3547
CCCNC(=O)C1(C)CCN(C(=O)c2ccccc2OC)C1 (centres undefined)	2977
COc1ccccc1C(=O)N1CCN(C(=O)c2oc3c(C)c(C)ccc3c2C)CC1	2999
O=C(NCc1cccs1)c1cccc2c(-c3ccc(F)c(F)c3)coc12	3498
COCCNC(=O)C1(C)CCCN(Cc2ccc(OCc3ccccc3)cc2)C1 (centres undefined)	4027
CC(O)(c1cccnc1)c1nc(-c2ccc(S(C)(=O)=O)cc2)cs1 (centres undefined)	3879
C[C@@H]1CN([C@@H](C)CO)C(=O)CCCn2nncc2CO[C@H]1CN(C)Cc1ccc2cccnc2c1	3688
Cc1cccc(-c2nc(NCCN(C)C)c3ccccc3n2)c1	4394
C[C@H](CO)N1C[C@H](C)[C@H](CN(C)S(=O)(=O)c2ccc(Cl)cc2)OCc2ccccc2-c2c(n(C)c3ccccc23)C1=O	3736
Cc1ccc(S(=O)(=O)N2CCCCC2)cc1NC(=O)C1CCN(C(=O)OC(C)(C)C)CC1	3826
C[C@H]1CN([C@@H](C)CO)C(=O)c2c(c3ccccc3n2C)-c2ccccc2CO[C@H]1CN(C)Cc1cccc(F)c1	3740
CCCOc1ccc(C2C(C(=O)c3ccco3)=C(O)C(=O)N2CCCn2ccnc2)cc1OC (centres undefined)	3573
CCC(=O)N1CCCC(C)(C(=O)Nc2nccc3ccccc23)C1 (centres undefined)	3588
CC1=C(C(=O)N2CCCCCC2)CC(CC(=O)NCCCCc2ccccc2)C(=O)N1Cc1ccccc1 (centres undefined)	5477
O=C1CCCCC(=O)[C@H](O)C[C@H](c2ccccc2)O1	5037

Laid out differently: four of the compounds above.
Cc1ccc(S(=O)(=O)N2CCCCC2)cc1NC(=O)C1CCN(C(=O)OC(C)(C)C)CC1
- Autofluor counter: 3826
CC1=C(C(=O)N2CCCCCC2)CC(CC(=O)NCCCCc2ccccc2)C(=O)N1Cc1ccccc1 (centres undefined)
- Autofluor counter: 5477
CCC(=O)N1CCCC(C)(C(=O)Nc2nccc3ccccc23)C1 (centres undefined)
- Autofluor counter: 3588
Cc1cccc(-c2nc(NCCN(C)C)c3ccccc3n2)c1
- Autofluor counter: 4394

Additional compounds follow:
SMILES	Autofluor counter
CCOC(=O)C1(C)CCCN(C(=O)c2ccccc2F)C1 (centres undefined)	3711
COCCCN1C(=O)C(CC(=O)NCc2cccs2)CC(C(=O)N(C(C)C)C(C)C)=C1C (centres undefined)	5348
CCCC1NC(=O)c2cc3ccccc3cc2-n2c1nc1cc(Cl)ccc1c2=O (centres undefined)	3031
CN(CC1CCCN(CCc2ccccc2F)C1)C(=O)c1cc2ccccc2o1 (centres undefined)	4355
CCOC(=O)C1=CCN(S(=O)(=O)c2ccc(F)cc2)C1c1ccc(C)cc1 (centres undefined)	5741
